Source: PubChem BioAssay (several laboratories)
ALR inh – inhibitors of human sulfhydryl oxidase ALR. P55789. purified ALR, DTT oxidation, H2O2 HRP-luminol luminescence. inhibition, % (concentration not given with the values). 290,000 tested, 3.8% active;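 active = mean and each replicate at 75% or more; inconclusive = only one of the two met; inactive = neither met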;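 also: stock transfer was 7.5 nL into about 7.5 µL; 0% = neutral wells and 100% = wells with inactivated enzyme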
Target sequence (P55789 whole entry, looked up): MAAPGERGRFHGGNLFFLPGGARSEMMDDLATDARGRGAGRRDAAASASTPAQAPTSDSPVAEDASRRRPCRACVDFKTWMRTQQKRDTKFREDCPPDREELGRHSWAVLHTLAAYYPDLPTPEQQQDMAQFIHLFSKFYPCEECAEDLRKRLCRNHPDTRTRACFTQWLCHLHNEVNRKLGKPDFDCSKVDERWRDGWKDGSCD
B2AR ag – human beta-2 adrenergic receptor agonism by FAP; Am2.2-beta2AR cells, FAP receptor internalization, flow cytometry; reference of the scale not given here; response, % (test concentration not listed); 340,000 tested, 0.43% active; AID 504454;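 active = response above a set limit, near 3 SD of response in nonfluorescent compounds, cut at about 42% in these data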;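 also: stock transfer was 100 nL into about 11 µL; a reference agonist was the positive control; negative values mostly stem from fluorescent compounds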
Target sequence (P07550 whole entry, looked up): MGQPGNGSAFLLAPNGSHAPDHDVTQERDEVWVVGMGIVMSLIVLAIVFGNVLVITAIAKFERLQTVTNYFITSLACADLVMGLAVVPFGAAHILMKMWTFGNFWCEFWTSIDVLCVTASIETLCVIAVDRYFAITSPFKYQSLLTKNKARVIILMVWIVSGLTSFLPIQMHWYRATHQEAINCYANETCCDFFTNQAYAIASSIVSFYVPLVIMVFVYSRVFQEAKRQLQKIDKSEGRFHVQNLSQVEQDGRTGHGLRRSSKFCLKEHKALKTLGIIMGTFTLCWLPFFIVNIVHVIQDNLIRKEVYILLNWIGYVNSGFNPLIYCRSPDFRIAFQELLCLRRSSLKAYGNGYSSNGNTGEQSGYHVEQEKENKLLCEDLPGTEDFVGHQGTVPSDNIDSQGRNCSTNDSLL
Calb FLC – affects C. albicans growth with fluconazole; C. albicans CaCi-2 (fluconazole-resistant clinical isolate) + fluconazole, Alamar Blue growth, 48 h; growth inhibition, % (test concentration not listed); 300,000 tested, 0.57% active; AID 1979;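 active = most replicates above 75%; inconclusive = exactly half above 75%; inactive = most below 75%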;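 also: all wells also contain fluconazole at 8 µg/ml as a sub-toxic cotreatment; 0% = median of DMSO wells and 100% = median of geldanamycin control wells; wells of about 8 µL received 7.5 nL stock; the first replicate is given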
RanGTP-Impb inh – inhibitors of RanGTP-importin-beta interaction, primary screen, biochemical, FRET, CFP-Ran, YFP-importin-beta, homogeneous; cell-free CFP-Ran/YFP-importin-beta FRET ratio; inhibition, % (test concentration not listed); 300,000 tested, 1.1% active;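 active = most replicates above 15%; inconclusive = exactly half above 15%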;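 also: 0% = DMSO wells and 100% = Ran loaded with GDP instead of GTP; wells of about 40 µL received 100 nL stock; the first replicate is given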
Vif A3G – inhibitors of Vif binding to APOBEC3G peptide, primary screen, biochemical, TR-FRET, GST-Vif 1-94, biotin-A3G peptide, dose response retest (AID 1117319). TR-FRET GST-Vif / biotin-A3G peptide binding; higher % means a stronger effect; test concentration not given here; strong numbers were not always called active. inhibition, %; hits with a dose series show IC50 in µM. 260,000 tested, 0.57% active;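 active = above the screen mean plus three standard deviations and confirmed in dose response; inconclusive = results disagree or hit not tested in dose response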;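 also: Vif residues 1-94 fused to GST binding biotinylated APOBEC3G peptide 110-148; 0% = full assay without inhibitor and 100% = GST in place of GST-Vif; retest series ran down from 100 µM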
HNF4A DNA FP – change in binding of human HNF4 alpha to DNA; AID 1224865; 360,000 tested, 0.3% active; HNF4a-FITC DNA binding, fluorescence polarization, 1 h; P41235; activity change, % at 10 µM; in the data active = activity change above about 30%, passing the limit was not always enough;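 also: controls were the assay level and a saturating level of protein; the project sought stronger binding though the title names inhibitors; some compounds called inactive have numbers as strong as hits; positive values seem to mean higher polarization but the record does not say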
LANA-H2A inh – blocks KSHV LANA binding to histone H2A/H2B; Q9QR71; cell-free LANA-H2A/H2B peptide, fluorescence polarization; inhibition, % (concentration not given with the values); 320,000 tested, 0.6% active; in the data active = inhibition mostly above about 10%, no sharp cut-off; inactive = mostly below about 6.7%;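 also: stock transfer was 7.5 nL into about 10 µL; 0% = median of vehicle wells and 100% = median of positive control wells; one replicate is shown; the record names a cut of 25% in any replicate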
The depositor's hits bear a star; ? = inconclusive; . = no result given; & = joins results of further samples.

Sequence of screens – ALR inh, B2AR ag, Calb FLC, RanGTP-Impb inh, Vif A3G, HNF4A DNA FP, LANA-H2A inh
- COc1cccc(NC(=O)N2CCCC2C(=O)NC2CC2)c1 (stereo not given)
    -4, 8, -4, -0.7, 7%, -3.4, 3.1
- Nc1nc2c(s1)C(=O)CCC2
    0, -2, 2, -0.5, -4%, 1.1, -4.7
- CC1CC(C)CN(S(=O)(=O)c2cc(C(=O)O)c(Cl)s2)C1 (stereo not given)
    -1, 0, 6, 7.6, ., -1.2, -0.8
- CN(C)CCN(Cc1ccco1)C(=O)c1cc2c(Cl)nc3ccccc3c2s1
    1, 16, 4, 0.4, -2%, 1.9, 2.5
- O=C(CN1C(=O)NC2(CCc3ccccc32)C1=O)c1ccc(F)cc1 (stereo not given)
    -5, 0, -1, 0.6, -1%, 2.1, -3.6
- Cc1cc(C)n2nc(SCC(=O)N/N=C/c3ccc(F)cc3)nc2n1
    -2, -15, 9, -1.8, 8%, -0.4, -2.5
- O=C1C(Cl)=C(NCC2CCCO2)C(=O)N1CCc1ccccc1 (stereo not given)
    37, -2, -8, 1.8, -5%, -0.8, -1.5
- CCCCCOC(=O)Cn1c(=O)c2c(nc(N3CCOCC3)n2C)n(C)c1=O
    -10, -5, -2, -2.9, 9%, -1.0, -2.8
- CCOC(=O)C1=C(CC)Nc2ccccc2N=C1NC(=O)Nc1ccc(Cl)c(Cl)c1
    -3, 12, -3, -3.4, 2%, 0.2, 11
- COc1cc2nc(CN(C)CC(=O)Nc3ccc(N4CCOCC4)cc3)[nH]c(=O)c2cc1OC
    ., 10, ., ., 3%, 2.5, .
- CC(=O)Nc1ccc(S(=O)(=O)NC(C)c2ccccc2)cc1 (stereo not given)
    -7, -4, 2, ?, ., 3.5, -1.0
- Cc1csc(NC(=O)CSc2nc3ccccc3c3c2CCCC3)n1
    -2, 8, ., ., 16%, -1.5, -2.8
- OCCN1CCN(CC(O)COc2ccc3ccccc3c2)CC1 (stereo not given)
    -3, 12, -13, -4.7, 70%, -2.7&-1.3, -2.6
- CN(C)CCN1C(=O)C(O)=C(C(=O)c2cc3ccccc3o2)C1c1ccccn1 (stereo not given)
    -2, ., -9, 25*, -3%, ., 0.2
- NC(=O)c1cccnc1Nc1ccccc1F
    -5, -9, 12, 0.8, 1%, 3.2, 1.0
- O=C(CSCc1cnn(-c2ccccc2)c1-n1cccc1)NCCN1CCOCC1
    -7, 2, 0, -0.8, 8%, -1.3, 0.2
- Cn1c(CNC(=O)c2ccccc2F)nnc1SCC(=O)NCc1ccccc1
    -1, -6, -10, -3.6, ?, 1.3, -2.5
- COc1ccccc1-c1nnc(SCC(=O)N2CCCCC2)o1
    4, -6, 5, 5.1, 1%, 2.5, -0.8
- CSc1ccccc1NC(=O)c1cc(-c2cccnc2)nc2ccc(Br)cc12
    16, 1, -2, -0.2, -15%, 1.7, 1.3
- CCOc1ccc(S(=O)(=O)N2CCCCC2)c2ccccc12
    1, -10, -1, 8.4, -6%, -4.8, -3.3
- C=CCOc1ccc(C2NC(=S)NC3=C2CCc2ccccc23)cc1 (stereo not given)
    -14, -1, 4, 2.7, 26%, 1.3, 2.9
- CCn1c(O)c(N=NC2=NC(=O)CS2)c2cc(C)ccc21
    56, -1, 42, 5.4, 7%, -2.7, 2.5
- CC1CCC(C(C)C)C2=C1C(C#N)(C#N)C(C#N)(C#N)C(c1ccccc1)N2 (stereo not given)
    94*, 33, 5, -3.7, ?, -1.7, 4.1
- Cc1ccc([N+](=O)[O-])cc1S(=O)(=O)N1CCCN(C)CC1
    -17, -14, 2, 0.0, -6%, 2.8, -2.4
- CC(=O)c1ccc(NC(=O)c2cn(-c3ccccc3)nc2-c2ccncc2)cc1
    19, 5, 0, 0.5, ., -2.0, -7.6
- O=c1[nH]c(=O)n(C(c2ccccc2)c2ccccc2)cc1Br
    63, 2, -6, 1.2, -7%, -1.7, 3.1
- CC1CCN(CC(=O)NCc2ccccc2)CC1
    -2, 10, 1, 4.7, -5%, 0.1, 5.2
- Cc1ccc(NC(=O)CN(C)Cc2cccs2)cc1Cl
    -6, -2, -6, -3.8, ., 1.1, -0.5
- COc1ccc(-c2cn3ccccc3n2)cc1OC
    57, -15, 27, -1.4, 30%, -2.9, 7.4
- CCOC(=O)NC1(C(F)(F)F)C(=O)NC(C)=C1C#N (stereo not given)
    -6, 2, 7, -5.6, 28%, -3.9, 2.5
- O=C(OCc1nnc(-c2ccccc2)o1)c1cc(S(=O)(=O)N2CCOCC2)c(Cl)cc1Cl
    2, 22, ., 1.8, 2%, -4.8, 3.1
- C[C@H](CO)N1C[C@H](C)[C@@H](CN(C)Cc2ccc3c(c2)OCO3)Oc2ccc(NC(=O)Cn3cnnn3)cc2C1=O
    -2, -3, ., ., ., 1.0, 5.0
- Cc1ccc(CC(=S)N2CCOCC2)cc1
    -1, 3, -4, 6.5, ., 2.2, 1.5
- CCOC(=O)c1nn(-c2ccccc2)c(=O)cc1SC(C)CC (stereo not given)
    -3, 1, -9, 1.0, -2%, 4.0, 4.7
- CC(=O)c1cc2c(cc1NS(=O)(=O)c1ccc(F)cc1)OCO2
    -14, 5, 11, 3.1, ., -3.3, 3.5
- Clc1cc(Cl)cc(C2=NCCC(c3ccccc3)O2)c1 (stereo not given)
    -9, ., -1, 2.8, ?, ., -2.1
- COc1ccc(/C=C/C(=O)Nc2cc(C)on2)cc1
    -1, -2, 2, 2.4, -3%, 1.1, 3.6
- Cc1cc(C)cc(NC(=O)N2CCc3ccccc3C2)c1
    -16, 6, 3, 7.5, ., 1.5, 0.7
- COc1ccc(/C=N/Nc2ccccn2)cc1O
    ., 5, -5, -1.7, ., -1.5, -6.7
- CC(C)C(=O)N(Cc1ccccc1)c1ccccn1
    -8, 7, -6, -0.9, -1%, 0.4, 4.1
- C=C(C)COc1ccc(-c2n[nH]c(C)c2-c2ccc(OC)c(OC)c2)c(O)c1
    ., 16, 1, 5.3, -2%, -4.7, -1.8
- Cc1cccc(C(=O)O/N=C(\N)c2ccccn2)c1
    5, 4, -3, -1.4, ., -1.1, 4.3
- COc1ccc(CCNC(=O)C(=O)Nc2nccs2)cc1OC
    -6, 0, -9, 4.5, ?, 1.5, -3.6
- COC(=O)N1C(=O)[C@](c2ccccc2)(C2CCCC2)N1C(=O)OC
    41, -1, 3, 0.7, ., 5.5, -2.3
- Nc1ccc(S(=O)(=O)c2ccc(Cl)cc2)cc1
    -4, -1, -15, 0.1, ?, -1.1, 11
- COc1ccc(CNc2ncnc3c2[nH]c2cc(OC)c(OC)cc23)cc1
    ., 7, -10, 2.2, 5%, 5.3, 1.6
- O=C(CCN1CCN(S(=O)(=O)c2ccc(Cl)cc2)CC1)Nc1ccc(F)cc1
    -7, -2, 2, 1.4, 1%, 0.7, -4.0
- CCCn1c(SCC(=O)NC2CCCC2)nc2c1c(=O)n(C)c(=O)n2C
    2, -1, -3, 5.1, ., -7.2, -1.5
- CC(O)[C@H]1CNC(=O)C(=O)N1CC1(c2ccccc2)CC1 (stereo not given in full)
    -10, 2, 4, 1.0, ., -0.9, 2.5
- CC1=C(C(=O)N2CCCC(CCC(=O)NCc3ccc(F)c(F)c3)C2)OCCO1 (stereo not given)
    ., 3, 4, -0.8, ., 3.6, 1.4
- O=c1c(-c2nc3ccccc3s2)cccn1Cc1ccccc1
    ., 12, 11, 9.1, 0%, 1.0, 1.3
- COc1cccc(/C=C2/C(=O)NN(c3ccc(Br)cc3)C2=O)c1O
    -2, 5, -11, -0.8, ., -0.1, 2.5
- CC1(C)Cc2c(cnn2-c2cccc(F)c2)C(NC(=O)c2ccc(=O)[nH]n2)C1 (stereo not given)
    92*, 7, -7, 1.1, ., -1.2, 4.7
- CCOC(=O)COc1ccc2c(c1)C(=O)CC1(CCN(C(C)=O)CC1)O2
    -15, 5, -3, 4.3, 2%, -2.7, -3.3
- CC(C)(C)c1ccc(OCC(=O)NCC(c2cccs2)N2CCOCC2)cc1 (stereo not given)
    -2, -2, 2, -1.4, 0%, -3.8, 3.9
- CC(C)c1ccc(-c2nc(N3CCCC3)nc3n[nH]c(N)c23)cc1
    -6, -10, -8, -0.4, 66%, -0.7, 11
- CCOC(=O)N1CCN(C(=O)c2c(N)no[n+]2[O-])CC1
    0, 11, 1, 0.1, ., 2.6, -0.3

Compounds from the list above with a Cl atom (nine):
Sequence of screens – ALR inh, B2AR ag, Calb FLC, RanGTP-Impb inh, Vif A3G, HNF4A DNA FP, LANA-H2A inh
- CC1CC(C)CN(S(=O)(=O)c2cc(C(=O)O)c(Cl)s2)C1 (stereo not given)
    -1, 0, 6, 7.6, ., -1.2, -0.8
- CN(C)CCN(Cc1ccco1)C(=O)c1cc2c(Cl)nc3ccccc3c2s1
    1, 16, 4, 0.4, -2%, 1.9, 2.5
- O=C1C(Cl)=C(NCC2CCCO2)C(=O)N1CCc1ccccc1 (stereo not given)
    37, -2, -8, 1.8, -5%, -0.8, -1.5
- CCOC(=O)C1=C(CC)Nc2ccccc2N=C1NC(=O)Nc1ccc(Cl)c(Cl)c1
    -3, 12, -3, -3.4, 2%, 0.2, 11
- Cc1ccc(NC(=O)CN(C)Cc2cccs2)cc1Cl
    -6, -2, -6, -3.8, ., 1.1, -0.5
- O=C(OCc1nnc(-c2ccccc2)o1)c1cc(S(=O)(=O)N2CCOCC2)c(Cl)cc1Cl
    2, 22, ., 1.8, 2%, -4.8, 3.1
- Clc1cc(Cl)cc(C2=NCCC(c3ccccc3)O2)c1 (stereo not given)
    -9, ., -1, 2.8, ?, ., -2.1
- Nc1ccc(S(=O)(=O)c2ccc(Cl)cc2)cc1
    -4, -1, -15, 0.1, ?, -1.1, 11
- O=C(CCN1CCN(S(=O)(=O)c2ccc(Cl)cc2)CC1)Nc1ccc(F)cc1
    -7, -2, 2, 1.4, 1%, 0.7, -4.0

Outcome played no part in choosing rows; overall some 6.3% were active at least once.
